Screening data from PubChem BioAssay.
NPYLR7 agonist: activates Aedes aegypti NPYLR7 receptor | 270,000 compounds, 0.15% hits | HEK293T NPYLR7/Galpha15, GCaMP6s calcium fluorescence | activation, % at 10 µM | AID 1259423; in the data active = activation above about 40%;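 also: 0% = vehicle and 100% = reference agonist at the receptor; some compounds past the cut are filed as inactive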
NPYLR7 agonist max-min: second read-out of NPYLR7 agonist, no call of its own (marks repeat the call); activation, %; measured here: Max-Min RFU normalised activation; some inactives read as strong as hits;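 span of the calcium signal over five minutes; 0% = vehicle and 100% = native peptide agonist; compound fluorescence can raise it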
Starred values were filed as active, the others as inactive; & = joins results of further samples. Not all compounds are listed. The share of hits here may be higher or lower than overall.

SMILES | NPYLR7 agonist max-min | NPYLR7 agonist
C=C(C)CC(c1ccco1)N(C(C)=O)c1ccccc1 (stereo not drawn) | -2 | 0
CCCCCSc1nnc2c(n1)OC=Nc1ccccc1-2 | 3 | 9
Cc1noc(-c2ccc(NCC(C)Oc3cccnc3)nc2)n1 (stereo not drawn) | 5 | 11
CCOC(=O)C1(CCOc2ccccc2)CCN(C(=O)c2ccc3oc(C)cc3c2)CC1 | 4 | 7
COCc1cnc2c(c1SCC(=O)Nc1cccc(C)c1C)c(=O)n(C)c(=O)n2C | 9 | 3
Cc1nc(C)c2c(C)c(C(=O)N(CCC(C)C)C3CC3)sc2n1 | 0 | 1
CCN(CC)CCNC(=O)c1cc(NC(=O)Nc2c(Cl)cccc2Cl)ccc1N1CCCC1 | 10 | -1
CN(C)CC1(O)CCCN(C(=O)C2(c3ccc(F)cc3)CC2)CC1 (stereo not drawn) | 6 | 10
CC1c2cc(Br)cnc2NCCC(=O)N1CC1CC1 (stereo not drawn) | 7 | 3
COc1cccc(C2NC(=O)NC(C)=C2C(=O)OCCc2ccccc2)c1 (stereo not drawn) | -8 | -3
CCN(CC)C(=O)[C@@H]1C[C@H](N)CN1C(=O)c1cccc2nccnc12 | 5 | -4
COC1CCN(S(=O)(=O)c2cc(Cl)c(N)c(Cl)c2)CC1 | -1 | 1
Cc1cccc(OC(F)F)c1NC(=O)C1(C)CCN1C(=O)c1ccccc1CCc1ccccc1 (stereo not drawn) | 11 | 12
Cc1cc(C)c(C)c(S(=O)(=O)Nc2ccc(O)c(Sc3ncn[nH]3)c2)c1C | -3 | 1
CN(c1nc2nonc2nc1NCc1ccccc1)C1CCOC1 (stereo not drawn) | 2 | 8
CC(C)c1cccc(N(C)C(=O)c2ccccc2C(F)(F)F)c1 | 1 | 3
COc1ccc(NS(=O)(=O)c2cc(C)c(Cl)cc2Cl)c(C(=O)NCc2ccccc2)c1 | 6 | 4
CN(C(=O)c1ccccn1)C(Cc1ccccc1)C1CCN(C(=O)c2cc3ccccc3oc2=O)CC1 (stereo not drawn) | 4 | 10
CC(Nc1ccc(NS(=O)(=O)c2c(Cl)cccc2Cl)cc1)C(=O)N1CCCC1 (stereo not drawn) | 3 | 6
CCNC(=O)N1CCN([C@@H]2C[C@H]3C[C@@H](c4ccccc4)OC[C@@]3(C)C2)CC1 | 25 | 8
CN1CCC2(CC1)CN(C(=O)Cn1nnc3ccccc3c1=O)CCCN2C | 3 | 6
Cc1cccc(C(=O)N2CCn3c(nnc3C(N)=O)C2)c1C | 3 | 7
CCN(CC)C(=O)Oc1ccc2c(ccn2Cc2ccccc2I)c1-c1ccc(OC)c(OC)c1 | 9 | 20
Brc1ccccc1Nc1nc2ccccc2n2cnnc12 | 4 | 12
CCCOC(=O)C1=C(C)NC2=C(C(=O)CC(c3ccccc3)C2)C1c1ccccc1OCCC (stereo not drawn) | 8 | 2
CC1=C(C(=O)OCC(F)(F)F)C(c2ccccc2Cl)NC(=O)N1 (stereo not drawn) | -5 | -5
Cc1cc(NC(=O)c2noc3c2CCCC3)no1 | -1 | 0
COC(=O)C1C(=N)OC2=C(C(=O)CCC2)C1c1ccccc1Cl (stereo not drawn) | -4 | 3
COc1ccc(C(=O)C(C#N)=Cc2ccc3c(c2)OCCO3)cc1 | -1 | 1
COC(=O)c1cc(-c2ccc(C)o2)nc2c1c(-c1ccco1)nn2C1CCS(=O)(=O)C1 (stereo not drawn) | 1 | 10
CC(=O)NC1CCCN(C(=O)COC(=O)c2cc3c(cc2O)CCCC3)C1 (stereo not drawn) | 4 | 7
CC(C)CNCc1cccc(OS(C)(=O)=O)c1 | 11 | 1
COc1cc(F)c(C(=O)NCc2ccon2)c(F)c1 | -9 | -4
CCOc1ccc(CN(CCc2c[nH]c3ccccc23)Cc2nc(C(=O)N3CCOCC3)co2)cc1 | 21 | 27
CN(C)[C@H]1CCN(c2nc(C(C)(C)C)nc3c2cnn3C)C1 | -14 | -5
c1cncc(-c2nc3c(c(NCCN4CCOCC4)n2)CCNC3)c1 | 1 | 1
COC(=O)C1(NC(=O)c2ccc(-c3ccc(F)cc3)s2)CCCCC1 | 7 | 7
Cc1cccc(C(N)=NOC(=O)N2c3ccccc3Sc3ccccc32)c1 | 0 | 4
Cc1cc(C)n(CC(C)NC(=O)Cn2nnnc2CN2CCc3ccccc3C2)n1 (stereo not drawn) | 5 | 6
Cc1ccc(-c2ccc(CCC(=O)O)[nH]2)cc1 | 9 | 18
COc1ccc(NCC2(c3ccnc(-c4cccc(O)c4)c3)CC2)cc1 | 27 | 9
CN(C)CC/C=C1\c2ccccc2CSc2ccccc21 | -8 | -4
CCN(CC)C(=O)c1sc(NC(=O)c2c(-c3ccccc3)noc2C)c(C(=O)OC(C)C)c1C | -11 | -5
CCCCN(Cc1ccc(F)cc1)C(=O)c1ccn[nH]1 | 20 | 1
CC1CCc2c(sc3nc(C(C)C)nc(N4CCN(S(=O)(=O)c5cccc6cccnc56)CC4)c23)C1 (stereo not drawn) | 15 | 14
CC1(C(=O)NS(=O)(=O)c2ccc(F)cc2F)CCN1C(=O)CCc1ccccc1 (stereo not drawn) | 3 | 1
COCc1ccc(C(=O)N2CCCC3(C2)C(=O)Nc2ccccc23)o1 (stereo not drawn) | -5 | -3
Cc1ccc(NC(=O)C2(C)CCN2C(=O)Cc2ccc(Cl)cc2Cl)cc1C (stereo not drawn) | 0 | 1
CCOC(=O)c1nn(-c2ccc(C(F)(F)F)cc2)c(=O)c2c(NC(=O)C(C)C)scc12 | 0 | -3
COCCOCCCC(=O)NC1(C)CCc2ccccc2C1 (stereo not drawn) | -1 | 1

Remaining list, next part.
SMILES | NPYLR7 agonist max-min | NPYLR7 agonist
Oc1c(Cl)cc(Cl)c(Cl)c1Cc1c(O)c(Cl)cc(Cl)c1Cl | 2&-15 | 10&-11
Cc1nc(C)c(Cc2cccc(C(F)(F)F)c2)c(N2CCN(C(=O)c3ccc(C)c([N+](=O)[O-])c3)CC2)n1 | 13 | 5
CNC(=O)[C@@]1(OCc2cccc(C(F)(F)F)c2)CC(OCc2ccc(C#N)cc2)[C@@H]2OC(C)(C)O[C@@H]2C1 (stereo partly drawn) | 7 | 0
CC1CN(c2cc(Oc3ccc(F)c(Cl)c3)ncn2)CCN1C(=O)c1ccccc1Br (stereo not drawn) | 8 | 10
CC(C)C[C@H](NC(=O)c1ccc(Br)s1)C(=O)NCC#N | 5 | 12
Cc1cccc(-c2nnc(NC(=O)C(Cc3ccccc3)NC(=O)c3ccc(F)cc3)s2)c1 (stereo not drawn) | 3 | 12
O=C(Oc1coc(CSc2ncccn2)cc1=O)c1ccc(F)c(F)c1 | -13 | -18
O=C1CC(C(=O)Nc2ccc(C(=O)N3CCCCCC3)cc2)CCN1 (stereo not drawn) | 2 | 4
Cc1cccc(-n2nnc3c(=O)n(Cc4ccc(C(F)(F)F)cc4)cnc32)c1 | -8 | -3
NC(=O)CSc1nc(SCC(N)=O)c2c3c([nH]c2n1)CCCC3 | 6 | 15
O=C(NCc1cc(-c2ccc3c(c2)OCCO3)on1)c1cc(-c2ccccc2)on1 | 4 | 4
C=CCOc1cccc(C2Nc3ccccc3S(=O)(=O)N2Cc2ccccc2)c1 (stereo not drawn) | 1 | 2
CCc1nc2ccc(C(=O)N3CCCCC3)cn2c1N(C)C(=O)COc1ccccc1 | -5 | -1
CC(C(=O)Nc1ccccc1Cl)N1CCN(C(=O)c2ccco2)CC1 (stereo not drawn) | -1&-11 | -1&-8
Oc1cccc(Oc2ccncn2)c1 | -1 | -1
CC(C)c1nnc(NS(=O)(=O)c2ccc(Cl)s2)s1 | 0&-24 | 0&-23
CSc1ncc(C(=O)N[C@@H]2C[C@H]3C(=O)N(C)CC(=O)N3C2)cn1 | 3 | 5
Cc1c(/C=N\NC(=O)CNc2ccccc2)c2ccccn2c1C(=O)c1cccc([N+](=O)[O-])c1 | -7 | -4
O=C(c1ccncn1)N1CCOc2c(O)cc(-c3nc4ccccc4s3)cc2C1 | 19 | 24
CC(=O)Nc1ccc(CN2CCC2(C)C(=O)Nc2ccc(C)cc2)cc1 (stereo not drawn) | -4 | 1
O=C(NC1Cc2ccccc2C1)c1ccc(-c2cc(-c3cccc4ccccc34)[nH]n2)cc1 | 17 | 22
Cc1ccc(S(=O)(=O)C(C#N)=Cc2ccsc2)cc1 | 0 | 1
CC(C)(C)C1(O)NS(=O)(=O)c2cccc(Cl)c21 (stereo not drawn) | 6 | 3
O=C(Nc1cc(-c2ccc(Cl)cc2)nn1-c1ccc(Br)cc1)c1cccc(C(F)(F)F)c1 | 26 | 34
CC(C)C[C@@H](C(=O)O)N1CC[C@@]2(CCCN2C(=O)C2CCC(=O)N2)C1=O (stereo partly drawn) | -4 | 0
CCN(CC)S(=O)(=O)c1ccc2c(c1)nc(SCc1ncc(C)c(OC)c1C)n2Cc1ccco1 | 17 | 28
COc1ccc(C2NC(=O)C(C#N)C(=S)N2c2ccccc2)cc1OC (stereo not drawn) | -2 | 2
Nc1c(Cl)cc(NS(=O)(=O)c2ccc(Cl)cc2)cc1Cl | -7 | -5
N#Cc1ccccc1COc1ccc(C(N)=O)cc1 | -30 | -27
Cc1nc(NCCNC(=O)C2CCCC2)cc(N(C)C)n1 | -2 | 2
O=C(Nc1ccnn1C1CCN(Cc2cccc3nonc23)CC1)c1ccccc1 | -3 | 2
Cc1cc(Oc2cc(N3CCN(C(=O)c4ccco4)C(C)C3)ncn2)ccc1Cl (stereo not drawn) | 34 | 32
CCc1nc2ccc(C(=O)Nc3ccc(OC)c(OC)c3)cn2c1N(C)Cc1ccc(OC)cc1 | -4 | 7
CCOC(=O)c1cc(-c2cccc(NC(=O)c3ccc4ccccc4n3)c2)n(-c2ccccc2OC)n1 | 2 | 7
COc1ccc(CCCC(=O)NCC(=O)N/N=C\c2cccc(Cl)c2Cl)cc1 | 10 | 4
COc1ccc(-c2cc(C(=O)Nc3cc(F)ccc3C)c3ccccc3n2)cc1 | -22 | -16
COCC(=O)Nc1ccc(N(C)C)c(CN(C(=O)c2ccc(F)cc2)C(C)c2ccccc2)c1 (stereo not drawn) | 26 | 15
COc1ccc(CNC(=O)c2cn(Cc3ccc(F)cc3)c(=O)s2)cc1 | 5 | 15
Cc1sc2ncnc(SCC(=O)Nc3ccc([N+](=O)[O-])cc3)c2c1C | -9 | -4
O=C(Nc1nc(-c2cccc(O)c2)cs1)C1CC2CCC1O2 (stereo not drawn) | -2 | 3
CN(C)CCCN(C(=O)CCS(=O)(=O)c1ccc(F)cc1)c1nc2c(Cl)cccc2s1 | -6 | -3
Cc1cccc(-c2noc(CN(C)Cc3nnc(-c4ccc(C)n4C)o3)n2)c1 | -3 | 5
O=C(NC1CCCC1)C1CCC(CNc2c(N3CCCCC3)c(=O)c2=O)CC1 (stereo not drawn) | -2 | 1
CCn1cc(C(CC(=O)NC2CCCCC2)c2ccc3c(c2)OCO3)c2ccccc21 (stereo not drawn) | 10 | -3
CC1CCN(C(C)CNC(=O)Cc2ccccc2Cl)CC1 (stereo not drawn) | 0 | 0
CC(CNC(=O)NC1CC2CCCC(C1)N2C)CN1CCOCC1 (stereo not drawn) | 4 | 10
Cc1ccc2[nH]c3c(c2c1)CCCC3NC(=O)c1cc(-c2ccco2)[nH]n1 (stereo not drawn) | -12 | -4
C=CCOC(CN1CCN(C(=O)Nc2ccccc2C(=O)OC)CC1)c1cccc(OC)c1 (stereo not drawn) | 0 | -4
C=CCOC(=O)C1=C(C)NC2=C(C(=O)CCC2)C1c1ccccc1OCCCC (stereo not drawn) | -7 | -2
Cc1cccc(-n2ncc3c(=O)[nH]c(-n4nc(C)cc4N)nc32)c1 | -6 | -5

The list continues:
SMILES | NPYLR7 agonist max-min | NPYLR7 agonist
CC1=CC[C@@H]2CN(C(=O)c3cc(=O)n(-c4ccccc4)[nH]3)C[C@@H]2C1 | 4 | 4
CC(NC(=O)CSC1=NCCS1)c1cccc2ccccc12 (stereo not drawn) | 0 | 0
Cc1noc(-c2ccccc2Cl)c1C(=O)NCCC#N | 3 | 0
O=C(CNC1(c2noc(C3CC3)n2)CCCC1)NC(=O)NC1CC1 | -1 | 1
c1ccc(CNc2cc(-c3ncnc4c3CCC4)c3cc[nH]c3n2)nc1 | 8 | 20
